# VDR inhibitor: Inhibitors of the vitamin D receptor (VDR): qHTS | Vitamin D3 receptor (Homo sapiens), P11473 | VDR-SRC2-3 peptide fluorescence polarization, 2 h | Potency, µM, without a hit: max response, negative = inhibition, hits mostly inhibitors | hit rate 0.93% among 400,000 | AID 504847, 2011; active means well fitted inhibition curve with a large enough effect; inconclusive means small, poorly fitted or top-dose-only effect, or another doubt; inactive means no such curve, though single readings can be large or run the other way; further: series mostly up to about 120 µM
# Target sequence (P11473 whole entry, looked up): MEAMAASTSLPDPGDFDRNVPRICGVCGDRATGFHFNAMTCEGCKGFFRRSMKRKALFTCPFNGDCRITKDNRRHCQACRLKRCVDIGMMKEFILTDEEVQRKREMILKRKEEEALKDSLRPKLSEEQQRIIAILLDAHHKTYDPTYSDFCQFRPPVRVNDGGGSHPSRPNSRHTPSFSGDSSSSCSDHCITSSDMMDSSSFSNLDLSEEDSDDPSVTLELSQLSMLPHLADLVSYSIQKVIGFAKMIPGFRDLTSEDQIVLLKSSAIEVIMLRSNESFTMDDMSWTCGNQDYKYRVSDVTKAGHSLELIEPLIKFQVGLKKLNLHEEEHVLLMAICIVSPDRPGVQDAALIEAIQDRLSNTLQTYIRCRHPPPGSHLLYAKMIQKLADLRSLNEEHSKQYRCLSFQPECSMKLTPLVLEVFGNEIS
#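 Measured by FP: displacement of SRC2-3 coactivator peptide from VDR by library compounds, following a two-hour ambient incubation.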
# Starred values were filed as active, the others as inactive; ? = inconclusive; & = joins results of further samples. On the % scale 0 is the no-effect control and ±100 the full control effect; potency means the concentration at half of the fitted maximal effect. Not all compounds are listed (hit frequency here may not be typical).
VDR inhibitor | SMILES
-12% | COc1ccc(CNS(=O)(=O)NCc2ccccc2)cc1OC
12% | O=C(O)C1CCCN1C1=NS(=O)(=O)c2ccccc21 (stereo not given)
-18% | O=C1NC[C@H](c2ccccc2)N(CCC23CC4CC(CC(C4)C2)C3)C1=O
-9% | S=C(NCc1cccnc1)Nc1ccc(Oc2ccccc2)cc1
45µM* | Cc1ccc(Nc2nnns2)cc1C
14% | O=C(Nc1ccn(Cc2ccccc2F)n1)c1ccc(COc2cccc(Br)c2)cc1
-16% | O=C(O)c1cc(S(=O)(=O)Nc2ccccc2C(=O)O)ccc1O
13% | CCOc1ccc(-c2cnc3n2CCC3)cc1
-6% | COCCn1c(C)cc(O)c(C(=O)Nc2cccc(Cl)c2)c1=O
1% | CCOC(=O)C1=NOC(Cn2cc(C(C)=O)c(=O)[nH]c2=O)C1 (stereo not given)
4% | Cc1cc(C(F)(F)F)nn1CC(=O)NCC1CCCO1 (stereo not given)
14% | CCc1ccc(CNC(=O)c2ccc(CSc3nc4ccncc4n3Cc3ccccc3)cc2)cc1
-4% | CCN(CC)S(=O)(=O)c1cccc(C(=O)N[C@H](C(=O)OCC(=O)NC(=O)NC)C(C)C)c1
-5% | COc1ccc(S(=O)(=O)N2CCN(C(=O)c3cnc(C)cn3)CC2)cc1
-6% | CCCC(C(=O)Nc1ccc(S(=O)(=O)N2CCOCC2)cc1)c1ccccc1 (stereo not given)
-19% | Cc1ccc(Sc2ncnc3onc(C)c23)cc1
-5% | O=c1c([N+](=O)[O-])c(NC2CCCCC2)c2ccccc2n1-c1ccccc1
2% | Fc1ccc(-c2nc(-c3cnccn3)no2)c(Cl)c1
-5% | CCOc1ccccc1OCC(=O)Nc1cc2c(cc1C(=O)O)OCCCO2
-13% | CCn1c(=O)cc(SCC(=O)Nc2ccc(Cl)cc2)c2ccccc21
-28% | CC(=O)N1c2ccccc2C(C)(c2ccc(C)cc2)CC1(C)C (stereo not given)
9% | Cc1c(C(=O)NCc2ccccc2)oc2c1C(=O)CCC2
-9% | CCN1C(=O)N[C@@H](c2ccco2)C(C(C)=O)=C1C
5% | Cc1cccc(NC(=O)CSc2nccn2Cc2ccc(F)cc2)c1C

# Not a retest: 2 of the compounds above.
VDR inhibitor | SMILES
-9% | CCN1C(=O)N[C@@H](c2ccco2)C(C(C)=O)=C1C
5% | Cc1cccc(NC(=O)CSc2nccn2Cc2ccc(F)cc2)c1C

# More records follow:
VDR inhibitor | SMILES
3% | O=C1CCC(CCC(=O)N2CCCC(C(=O)c3ccc4c5c(cccc35)CC4)C2)=NN1 (stereo not given)
-15% | O=C(COC(=O)c1ccccc1F)NC1CCCC1
2% | C#CCn1c(C2CC(=O)N(c3ccc(OCC)cc3)C2)nc2ccccc21 (stereo not given)
11% | CCN(CC)C(=O)CSc1nnc(-c2cccnc2)n1Cc1ccccc1
1% | COc1ccc(Cl)cc1N(CC(=O)N1CCC(C)CC1)S(C)(=O)=O
-2% | CCN(CC)CCn1c(NCc2ccco2)nc2ccccc21
-3% | CCOC(=O)CN(c1ccccc1)S(=O)(=O)c1ccc(F)cc1
8% | COCCN=C1Sc2nc3cc(C)c(C)cc3cc2CN1Cc1cccs1
? | Cc1ccc(S(=O)(=O)NC(=O)Nc2ccc(N(C)C)cc2)cc1
-18% | COc1ccc(C(=O)Nn2c(SCc3cccc([N+](=O)[O-])c3)nc3ccccc3c2=O)cc1
? | O=P1(O)Oc2c(c(-c3ccccc3)cc3ccc4ccccc4c23)-c2c(-c3ccccc3)cc3ccc4ccccc4c3c2O1
2% | COc1cc(C2C3=C(CC(C)(C)CC3=O)Nc3ccccc3N2C(C)=O)cc(OC)c1OC (stereo not given)
-5% | O=C(c1cccc(S(=O)(=O)N2CCOCC2)c1)N1CCN(S(=O)(=O)c2cccs2)CC1
? | O=C(Nc1cc(S(=O)(=O)N2CCOCC2)ccc1N1CCCCC1)c1ccc(Cl)cc1
1% | C#CCOCCOCCOCCNc1nc(N2CCN(C(=O)[C@H](CCCN=C(N)N)n3cc(C(N)[C@@H](C)CC)nn3)CC2)nc(N2CCN(C(=O)[C@H](CC(N)=O)n3cc([C@@H](N)CC(N)=O)nn3)CC2)n1 (stereo not given in full)
-13% | CCn1c(COc2ccc3c(c2)OCO3)nnc1SCC(=O)c1ccc(Cl)cc1
0% | COc1ccc(CCN2C(=O)CN(C3CCCCCC3)C(=O)C2c2ccc(C)cc2)cc1OC (stereo not given)
4% | O=C(NCc1cccs1)Nc1cccc(Cl)c1
-22% | CN(C)CC(C)(C)CNC(=S)NCc1ccc2c(c1)OCO2
-15% | CCC(C)NC(=O)c1ccc(CSCc2ccccc2Cl)o1 (stereo not given)
5% | CCOC(=O)c1c(NC(=O)CN2C(=O)NC3(CCC(C)CC3)C2=O)sc(C)c1CC (stereo not given)
1% | Cc1[nH]nc2c1C(c1ccc(F)cc1)C(C#N)=C(N)O2 (stereo not given)
22µM* | CNC1(c2nnnn2-c2ccccc2C)CCOC(C)(C)C1 (stereo not given)
-16% | O=C(O)c1ccccc1/C=N/Nc1ccc(S(=O)(=O)Nc2ccc(Cl)cc2)cc1[N+](=O)[O-]

# Shown as a hit in VDR inhibitor, of those listed so far:
VDR inhibitor | SMILES
45µM* | Cc1ccc(Nc2nnns2)cc1C
22µM* | CNC1(c2nnnn2-c2ccccc2C)CCOC(C)(C)C1 (stereo not given)

# Next part.
VDR inhibitor | SMILES
-5% | Nc1c(C(O)(C(F)(F)F)C(F)(F)F)ccc2ccccc12
-9% | COc1ccccc1CNC(=O)c1cc(-c2ccccc2)nn1CC1CC(c2cccc([N+](=O)[O-])c2)=NO1 (stereo not given)
-8% | COc1ccc2c(c1)OC[C@H]1[C@H]2N2C(=O)CN(CCc3c[nH]c4ccccc34)C(=O)[C@@]2(C)[C@H]1c1ccccc1
12% | Cc1ccc(C(=O)Cn2c3[n+](c4ccccc42)CC(O)CS3)cc1 (stereo not given)
-3% | CCn1c(=NC(=O)c2ccco2)sc2cccc(F)c21
-9% | Cc1c(C(=O)OC2CCC(C)CC2)[nH]c2c1C(=O)CC(c1ccc(F)cc1)C2 (stereo not given)
8% | COc1ccc(N2C(=NC(=O)C3CCCO3)SC3CS(=O)(=O)CC32)cc1 (stereo not given)
7% | O=C(O)CNC(=O)c1ccccc1F
10% | CCC(CC)c1nnc(NC(=O)Cc2cccs2)s1
12% | CSc1cccc(NS(=O)(=O)c2cn(C)c(C)n2)c1
-19% | C=C(C)CSc1nnc(-c2ccc(OC)c(OC)c2)n1N
-3% | CC1=C(c2ccc(C)c(C)c2)S(=O)(=O)N=C1N1CCC(C(=O)NCCc2ccc(Cl)cc2)CC1
3% | COCCOC(=O)c1c(C)oc2ccc(OCC=C(C)C)cc12
9% | O=C(Cn1nc2n(c1=O)-c1ccccc1SC2)N/N=C/c1cccs1
2% | CCC(C)C(=O)Nc1nc2ccc(S(C)(=O)=O)cc2s1 (stereo not given)
14% | CCOC(=O)C1(Cc2ccccc2C(F)(F)F)CCN(C(=O)c2cc(C(C)=O)n[nH]2)CC1
? | c1ccc(CNc2ncncc2-c2cccnc2)cc1
? | [O-]/[N+](=C/c1ccc(F)cc1)c1ccccc1
2% | Brc1ccc2c(c1)[C@H]1OCC[C@H]1[C@@H](c1cccs1)N2
-3% | COc1ccc(C2=C(Nc3ccc(C)c(C)c3)c3ccccc3C2=O)cc1
5% | COCC(=O)N1CCC(Oc2ccc(C(=O)NC3Cc4ccccc4C3)cc2)CC1
-1% | O=S(=O)(c1ccc2c(c1)CCN2)N1CCCCCC1
-5% | CCOC(=O)C1CCCN(C(=O)CN2C(=O)/C(=C/c3ccc(OC)cc3)Oc3ccccc32)C1 (stereo not given)
-9% | Cc1nnc(NC(=O)CSC2=NN3CCCC(=O)N=C3S2)s1
-5% | Cc1ccc(OCc2n[nH]c(=S)n2C2CCCCC2)cc1
4% | CCOc1ccc(N(C)C(=O)CS(=O)(=O)c2cccc3nsnc23)cc1
15% | NC(Cc1ccc(O)cc1)c1cn([C@@H](CCC(=O)O)C(=O)N2CCNCC2)nn1 (stereo not given in full)
9% | CCOc1ccc(NS(=O)(=O)c2ccc(C)c(C(N)=O)c2)cc1
? | CCN(C(=O)CSC1=Nc2ccccc2C2CC=NN12)C1CCS(=O)(=O)C1 (stereo not given)
14% | CCn1c(CN2CCCCC2)nc2cc(NC(=O)COc3ccc([N+](=O)[O-])cc3)ccc21
18% | CC(C)CCNC(=O)NC(=O)CSc1ccc(S(=O)(=O)N2CCOCC2)cn1
12% | CCc1ccc(N2C(=O)CN(S(=O)(=O)CC)CC2(C)C(=O)NC2CCCCC2)cc1 (stereo not given)

# Among those listed so far, 10 contain a Cl atom.
VDR inhibitor | SMILES
-6% | COCCn1c(C)cc(O)c(C(=O)Nc2cccc(Cl)c2)c1=O
2% | Fc1ccc(-c2nc(-c3cnccn3)no2)c(Cl)c1
-13% | CCn1c(=O)cc(SCC(=O)Nc2ccc(Cl)cc2)c2ccccc21
1% | COc1ccc(Cl)cc1N(CC(=O)N1CCC(C)CC1)S(C)(=O)=O
? | O=C(Nc1cc(S(=O)(=O)N2CCOCC2)ccc1N1CCCCC1)c1ccc(Cl)cc1
-13% | CCn1c(COc2ccc3c(c2)OCO3)nnc1SCC(=O)c1ccc(Cl)cc1
4% | O=C(NCc1cccs1)Nc1cccc(Cl)c1
-15% | CCC(C)NC(=O)c1ccc(CSCc2ccccc2Cl)o1 (stereo not given)
-16% | O=C(O)c1ccccc1/C=N/Nc1ccc(S(=O)(=O)Nc2ccc(Cl)cc2)cc1[N+](=O)[O-]
-3% | CC1=C(c2ccc(C)c(C)c2)S(=O)(=O)N=C1N1CCC(C(=O)NCCc2ccc(Cl)cc2)CC1

# The listing continues.
VDR inhibitor | SMILES
3% | Cc1ccccc1C(=O)NC1CCN(CC(=O)Nc2c(C)cccc2C)CC1
11% | Clc1ccc(N(CC2CO2)CC2CO2)cc1 (stereo not given)
5%&-12% | CCC(CC)C(=O)Nc1ccc(-c2cn3cccnc3n2)cc1
3% | CCCCC(=O)Nc1ncc(Br)s1
-4% | CCOc1ccc(C(=O)CCC(=O)NC(CC(C)C)C(=O)OC)cc1 (stereo not given)
-1% | Cc1ccc(S(=O)(=O)Nc2ncnc3sccc23)cc1C
-4% | O=C(CCc1nc2ccccc2n1-c1ccccc1)NCCO
10% | O=C(Nc1ccc2c(c1)OCO2)Nc1cnccn1
7% | COc1ccccc1N1CCN(c2ccc([N+](=O)[O-])cc2Cl)CC1
-13% | O=C(Cc1cccs1)Nc1ccc(C(=O)O)cc1
9% | CCN(CC)S(=O)(=O)c1ccc(N2CCCC2)c(NC(=O)CN2C(=O)NC3(CCCC3)C2=O)c1
12% | CCCCC/C=C\C/C=C\C/C=C\C=C\C1CCCC(=O)O1 (stereo not given)
-4% | O=C(NC1(C(F)(F)F)NC(=O)N(C2CCCCC2)C1=O)c1cccs1 (stereo not given)
5% | CCC1CCCCN1CCCNC(=O)c1cn(CC)c2ccc(S(=O)(=O)N3CCc4ccccc4C3)cc2c1=O (stereo not given)
4% | O=C(COC(=O)Cc1n[nH]c(=O)c2ccccc12)Nc1ccc(Cl)cn1
0% | Cc1ccc(-c2ccc(=O)n(CC(=O)NCCc3ccc(Cl)cc3)n2)cc1
-3% | Cc1ccccc1Oc1ccc(NC(=O)C2CC=CCC2C(=O)O)cc1 (stereo not given)
16% | CCc1nc2ccccc2n1CCC(=O)O
5% | C#CC1(O)CC(C)NCC1(C)CCC#N (stereo not given)
-6% | COc1ccc(N2CCCCn3c2nc2c3c(=O)[nH]c(=O)n2C)cc1
? | CC(C)C[C@@H](CNCC(=O)[C@H](C)NC(=O)c1[nH]cnc1C(=O)N[C@@H](C)CN)NC(=O)c1nc[nH]c1C(=O)N[C@@H](Cc1ccccc1)C(=O)O
-18%&-13% | COc1ccc(C2/C=C\CN(S(=O)(=O)c3cccc4cccnc34)CC(=O)N2Cc2ccc(F)cc2)cc1 (stereo not given)
-18% | CC(O)[C@H]1CNCCN1CCc1cccc2ccccc12 (stereo not given in full)
4% | O=C(NCCN1CCN(c2cccc(Cl)c2)CC1)C1COc2ccccc2C1 (stereo not given)
-20% | O=C(OCc1nc2scc(-c3ccccc3)c2c(=O)[nH]1)c1cccc([N+](=O)[O-])c1
-1% | COc1cc(C2C(C(C)=O)=C(O)C(=O)N2CCc2ccc(OC)c(OC)c2)ccc1O (stereo not given)
3% | CCN(CC)c1nn2c(=O)c(C(=O)NCCc3ccccc3)cnc2s1
-4% | COc1ccc(/C=C(\C#N)C(=O)OCC(=O)NC(=O)NCCC(C)C)cc1
-9% | O=C(c1ccc(Cl)c([N+](=O)[O-])c1)N1CCN(C(=O)c2ccco2)CC1
-14% | FC(F)(F)c1cnc(COc2ccc(Cl)cc2Cl)c(Cl)c1
5% | O=C(O)COc1ccc(Br)cc1/C=N/O
-8% | CCc1ccc(C2C(C#N)=C(N)OC3=C2C(=O)CCC3)s1 (stereo not given)
7% | CCOc1ccc(NC(=O)CCS(=O)(=O)c2cccc3nsnc23)cc1
-8% | O=C(Nc1ccc(O)cc1)c1ccc(NC(=O)c2cccs2)cc1
-5% | Cc1c(N=Cc2c(O)n(C3CCCCC3)c(=O)[nH]c2=O)c(=O)n(-c2ccccc2)n1C
-19% | COC(=O)COc1cccc2c(=O)n(CC(=O)Nc3ccc4c(c3)OCCO4)ccc12
-10% | Cc1ccnc(NC(=O)Cc2ccc(F)cc2)n1
7% | CCc1cc2cc(C)cc(C)c2nc1SCC(=O)N1CCCC1
14% | COc1ccc(S(=O)(=O)N2CCOCC2)c(C)c1C
12% | CC(C)OCC(O)CCc1n[nH]c(=S)n1-c1ccccc1 (stereo not given)
6% | COc1cc(C(=O)O)cc(NC(=O)c2cccs2)c1OC
7% | COC(=O)c1ccc2c(=O)n(Cc3ccc(C(=O)NCCCN4CCOCC4)cc3)c(=S)[nH]c2c1
8% | COc1ccc(S(=O)(=O)NCC(c2ccc(N(C)C)cc2)N2CCc3ccccc32)cc1OC (stereo not given)

# Assay outcomes as filed in PubChem BioAssay.
